Compound activity: PubChem BioAssay, several laboratories
LANA-H2B inh – blocks KSHV LANA binding to histone H2A/H2B; inhibition, % (no concentration beside the values); cell-free LANA-H2A/H2B peptide, fluorescence polarization; 0.6% of 320,000 active; in the data active = inhibition mostly above about 10%, no sharp cut-off; inactive = mostly below about 6.7%;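 note: stock transfer was 7.5 nL into about 10 µL; 0% = median of vehicle wells and 100% = median of positive control wells; one replicate is shown; the record names a cut of 25% in any replicate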
Target sequence (Q9QR71 whole entry, looked up): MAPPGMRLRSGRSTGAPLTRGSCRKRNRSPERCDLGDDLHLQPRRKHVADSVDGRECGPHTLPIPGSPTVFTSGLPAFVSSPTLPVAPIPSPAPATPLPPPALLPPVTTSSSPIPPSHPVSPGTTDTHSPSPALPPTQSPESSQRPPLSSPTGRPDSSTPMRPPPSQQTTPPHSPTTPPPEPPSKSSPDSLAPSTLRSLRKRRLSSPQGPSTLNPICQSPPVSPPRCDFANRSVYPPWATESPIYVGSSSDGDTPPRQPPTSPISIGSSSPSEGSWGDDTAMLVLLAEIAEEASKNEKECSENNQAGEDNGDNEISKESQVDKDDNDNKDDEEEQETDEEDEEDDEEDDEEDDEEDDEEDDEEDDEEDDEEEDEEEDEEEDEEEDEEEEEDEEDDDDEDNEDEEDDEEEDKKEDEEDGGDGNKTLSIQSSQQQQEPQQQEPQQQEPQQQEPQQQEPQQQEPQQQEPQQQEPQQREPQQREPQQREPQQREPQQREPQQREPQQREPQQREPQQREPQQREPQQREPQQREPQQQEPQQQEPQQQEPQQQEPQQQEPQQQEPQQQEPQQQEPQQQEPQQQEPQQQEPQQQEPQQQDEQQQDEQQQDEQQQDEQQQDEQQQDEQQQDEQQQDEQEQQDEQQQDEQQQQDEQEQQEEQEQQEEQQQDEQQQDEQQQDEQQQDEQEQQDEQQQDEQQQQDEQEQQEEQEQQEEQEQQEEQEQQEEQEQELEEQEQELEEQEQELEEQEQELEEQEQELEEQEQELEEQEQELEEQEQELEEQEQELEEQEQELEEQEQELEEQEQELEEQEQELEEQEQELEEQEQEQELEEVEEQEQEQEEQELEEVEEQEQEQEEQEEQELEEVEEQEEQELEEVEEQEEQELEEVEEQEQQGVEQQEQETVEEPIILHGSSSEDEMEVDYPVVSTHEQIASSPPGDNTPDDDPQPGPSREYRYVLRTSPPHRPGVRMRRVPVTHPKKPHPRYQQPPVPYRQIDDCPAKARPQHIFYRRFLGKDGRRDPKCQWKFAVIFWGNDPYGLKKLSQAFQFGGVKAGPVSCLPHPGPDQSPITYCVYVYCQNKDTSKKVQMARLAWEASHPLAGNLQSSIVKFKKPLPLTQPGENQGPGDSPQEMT
rRNA inh HTS – inhibitors of bacterial rRNA selective over humanized ribosomes. E. coli WT GFP vs humanized-ribosome RFP mutants, fluorescence, 24 h; stronger effect = lower value; DMSO median 0, no signal -100. GFP signal change (wild-type ribosome), % (no concentration beside the values). 1.6% of 350,000 active;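 active = significant combined selectivity score with lowered wild-type GFP, culture density cut under 30%, mutant RFP and density less affected; inactive = any of these conditions unmet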; note: one replicate is shown; some compounds called inactive have numbers as strong as hits
ALR inh – blocks human ALR sulfhydryl oxidase activity | P55789 | purified ALR, DTT oxidation, H2O2 HRP-luminol luminescence | inhibition, % (concentration not given with the values) | 3.8% of 290,000 active;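 active = mean and each replicate at 75% or more; inconclusive = only one of the two met; inactive = neither met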;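 note: stock transfer was 7.5 nL into about 7.5 µL; 0% = neutral wells and 100% = wells with inactivated enzyme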
T cruzi repl – blocks replication of Trypanosoma cruzi | AID 1885 | inhibition, % (concentration not given with the values) | 1.4% of 300,000 active | T. cruzi beta-gal in NIH3T3, luminescence, 90 h;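 active = mean inhibition across valid replicates above about 55%, limit read from the data; inconclusive = mean below that limit but half or more replicates reach it; inactive = mean below it, under half of replicates reach it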;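 note: signal also drops with host cell toxicity which is not excluded here; 0% = plate median of DMSO wells and 100% = zero luminescence signal; higher percent means less beta-gal luminescence so fewer parasites; stock transfer was 50 nL into about 50 µL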
B2AR ag – activates human beta-2 adrenergic receptor causing internalization | 0.43% of 340,000 active | P07550 | Am2.2-beta2AR cells, FAP receptor internalization, flow cytometry; reference of the scale not given here | response, % (concentration not given with the values);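 active = response above a set limit, near 3 SD of response in nonfluorescent compounds, cut at about 42% in these data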;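 note: stock transfer was 100 nL into about 11 µL; a reference agonist was the positive control; negative values mostly stem from fluorescent compounds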
Calb FLC – affects C. albicans growth with fluconazole | AID 1979 | C. albicans CaCi-2 (fluconazole-resistant clinical isolate) + fluconazole, Alamar Blue growth, 48 h | growth inhibition, % (concentration not given with the values) | 0.57% of 300,000 active;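 active = most replicates above 75%; inconclusive = exactly half above 75%; inactive = most below 75%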;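 note: all wells also contain fluconazole at 8 µg/ml as a sub-toxic cotreatment; 0% = median of DMSO wells and 100% = median of geldanamycin control wells; wells of about 8 µL received 7.5 nL stock; the first replicate is given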
A1 inh – inhibitors of the anti-apoptotic protein A1, read as caspase activation; MEF A1-2A-BIM cells, Caspase-Glo 3/7 luminescence, 3 h; percent of clofoctol response, vehicle zero; caspase activation, % (test concentration not listed); 0.066% of 330,000 active;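 active = over half of replicate activation scores above 10%, or exactly half above 10 with the replicate mean above 10; inconclusive = replicate mean below 10 yet half the replicates above 10; inactive = over half of replicates below 10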;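 note: wells of about 30 µL received 50 nL stock; many hits fall short of the cut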
Beta cell apopt – blocks beta cell apoptosis; INS-1E cytokine-induced death, ATP luminescence, 48 h; percent of positive-control rescue, neutral wells zero; protection from apoptosis, % (no concentration beside the values); 0.8% of 300,000 active; AID 435005;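 active = all replicates at 75% or more, or half of them and the mean; inconclusive = half reach 75% but not the mean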;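 note: 0% = cytokine-treated negative control wells and 100% = positive control rescue; higher means more ATP so stronger rescue from cytokine killing; wells of about 40 µL received 100 nL stock; the first replicate is given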
rRNA inh HTS OD600 – second read-out of rRNA inh HTS, no call of its own (marks repeat the call); OD600 change, %; measured here: OD600 growth;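 optical density of the mix in the first replicate; 0 = DMSO median and -100 = no signal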
rRNA inh HTS RFP – also measured in rRNA inh HTS; calls as there; RFP signal change, %; measured here: RFP humanized mutant strains;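 first replicate; 0 = DMSO median and -100 = no signal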
The depositor's hits bear a star; ? = inconclusive; . = no result given.

SMILES	LANA-H2B inh	rRNA inh HTS	rRNA inh HTS OD600	rRNA inh HTS RFP	ALR inh	T cruzi repl	B2AR ag	Calb FLC	A1 inh	Beta cell apopt
Cc1ccc([N+](=O)[O-])cc1S(=O)(=O)Nc1ccc(C(=O)NCc2ccccn2)cc1	-10	1	10	-1.8	-1	-5	-7	3	-0.2	.
S=C(Nc1ccccc1)N1CCN(C/C=C/c2ccccc2)CC1	0.7	-16	-16	-9.2	-9	0	-15	0	-0.3	-5
C/C(=N\N=C1\NC(=O)C(CC(=O)Nc2ccc(C)c(Cl)c2)S1)C(C)C (stereo unspecified)	3.5	-41	-35	2.8	2	-8	2	23	1.0	-4
CC(SC1=NCCN1S(=O)(=O)c1ccccc1)c1ccccc1 (stereo unspecified)	-2.1	-34	-56	-5.5	-7	8	35	-1	0.3	1
O=C(O)c1ccc2c(c1)-c1cc(C(=O)O)ccc1S2(=O)=O	8.8	14	15	-0.7	.	-5	10	0	1.9	-3
Cc1nn(C)cc1C(C)NC(=O)c1cc(COc2cccc3cnccc23)on1 (stereo unspecified)	-1.4	6	-2	-2.5	-20	8	-4	12	-0.4	-1
CCC(C)[C@H](NC(=O)N1CC(=O)Nc2ccccc21)C(=O)N1CCC[C@H]1C(=O)O (stereo partly specified)	5.4	.	.	.	-6	-6	9	1	-0.2	-10
COc1ccc(C(=O)NC2CC(C)(C)Cc3c2cnn3-c2ccccc2)cc1OC (stereo unspecified)	-3.0	1	-7	-0.9	5	-17	-18	-1	-0.7	-7
COC(=O)c1[nH]c2ccc(Cl)cc2c1NC(=O)Oc1ccccc1	1.4	.	.	.	100*	10	3	-11	0.7	6
CC(C)(C)CC(C)(C)NC(=O)c1ccc2snnc2c1	3.1	-2	-2	0.2	0	5	-6	3	0.3	1
O=C(O)C1CSCN1S(=O)(=O)c1cccc2nsnc12 (stereo unspecified)	-0.9	.	.	.	-6	-13	-1	-2	1.0	-1
COc1ccc(S(=O)(=O)Cc2ccc(C(=O)NC3CCCC3)o2)cc1	3.6	0	1	-1.3	.	-7	-5	6	-0.4	-5

3 entries from above, ordered by their value in ALR inh, rising:
molecule,LANA-H2B inh,rRNA inh HTS,rRNA inh HTS OD600,rRNA inh HTS RFP,ALR inh,B2AR ag
Cc1nn(C)cc1C(C)NC(=O)c1cc(COc2cccc3cnccc23)on1 (stereo unspecified),-1.4,6,-2,-2.5,-20,-4
S=C(Nc1ccccc1)N1CCN(C/C=C/c2ccccc2)CC1,0.7,-16,-16,-9.2,-9,-15
CC(C)(C)CC(C)(C)NC(=O)c1ccc2snnc2c1,3.1,-2,-2,0.2,0,-6

Carrying on:
SMILES	LANA-H2B inh	rRNA inh HTS	rRNA inh HTS OD600	rRNA inh HTS RFP	ALR inh	T cruzi repl	B2AR ag	Calb FLC	A1 inh	Beta cell apopt
COc1ccc(N(CC(=O)NC2CCCC2)C(=O)Cn2nnc(-c3ccc(F)cc3)n2)cc1OC	-2.3	11	9	-7.6	-15	3	-4	-1	0.0	2
CCOc1ccc(CCNC(=O)CCCN2C(=O)c3ccccc3C2=O)cc1OCC	-1.0	.	.	.	-20	-5	-7	6	0.0	-1
CN1CCN(c2ccccc2NC(=S)NC(=O)c2cc3ccccc3o2)CC1	-4.1	11	11	-0.4	0	-12	-9	4	0.8	-4
O=C(/C(=N\Nc1ccc(Br)cc1)Sc1nnnn1-c1ccccc1)c1ccccc1	2.3	.	.	.	8	-11	4	-13	0.5	10
Cc1n[nH]c(C)c1S(=O)(=O)N1CCC(C(=O)N2CCn3c2nc2ccccc23)CC1	-0.7	-23*	-17*	-1.8*	-5	11	-10	20	-0.1	-10
COc1cc2c(cc1OC)CN(C(=O)Nc1ccccc1Cl)CC2	-7.6	-15	-17	-1.7	0	-4	1	1	-0.3	-2
O=C(O)Cc1nc2nc3c(c(=O)n2[nH]1)CCCC3	-2.1	.	.	.	-1	0	3	-6	-0.2	-3
N#Cc1nc(Cc2cccc3ccccc23)oc1N1CCCCC1	1.2	.	.	.	-13	26	-5	13	0.5	-7
COc1ccc(C(=O)C2CCCN(S(=O)(=O)C(C)C)C2)c(C)c1 (stereo unspecified)	-1.4	-13	-12	-3.6	0	-18	-6	8	?	-11
Cc1ccc2occ(-c3nn[nH]n3)c(=O)c2c1	-3.9	-13	-13	-5.4	-8	1	2	21	0.6	-7
Cc1ccc2nc(NC(=O)c3ccc(S(=O)(=O)N4CCCc5ccccc54)cc3)sc2c1	3.3	.	.	.	-2	13	2	18	0.4	4
Cc1ccnc(SCc2cc(=O)c(OC(=O)c3cc([N+](=O)[O-])ccc3Cl)co2)n1	6.2	8	15	-3.2	23	3	0	-8	0.0	.
Cc1cc(C)cc(N2C(=O)CC(Sc3ccccc3C(=O)O)C2=O)c1 (stereo unspecified)	-11	5	6	1.0	0	3	5	10	0.7	-2
CC(NC(=O)C1(C)CC1(Br)Br)C(C)(C)C (stereo unspecified)	0.3	.	.	.	-8	-1	-6	1	1.2	.
CC(Sc1nnc(C2CC2)n1C1CC1)C(=O)N(C)C1(C#N)CCCCC1 (stereo unspecified)	-3.5	2	3	-1.1	0	.	1	.	-0.7	-4
OCCC1CN(Cc2ccc3nsnc3c2)CCN1C1CCCCC1 (stereo unspecified)	4.1	.	.	.	1	4	-5	-9	-0.3	-13
O=C(NCc1ccccc1OC(F)(F)F)C1CCC(=O)N(Cc2cccc(F)c2)C1 (stereo unspecified)	0.2	2	1	-1.7	0	-12	6	-10	0.3	-1
O=C(CSc1nccc(=O)[nH]1)Nc1ccc(S(=O)(=O)N2CCOCC2)cc1	4.2	10	-3	0.4	99*	-3	-6	12	0.0	.
O=C(CSc1nc2c(c(=O)[nH]1)CCC2)Nc1cccc(F)c1	-0.9	2	-1	-0.4	41	-1	9	-11	-0.1	-2
COc1ccc(C(=O)NC2CCCCCC2)cc1S(=O)(=O)N1CCOCC1	-3.0	-3	3	-1.9	23	-2	-7	12	-0.1	-6
O=C(c1ccc(N2CCNCC2)cc1)c1cccnc1	-1.3	.	.	.	1	6	-15	-12	0.8	2
CCCCN1C(=O)/C(=C(/C#N)C(N)=O)c2ccccc21	1.5	.	.	.	24	1	1	12	-0.8	-3
CC(=O)Nc1ccc(NC(=O)/C(Cl)=C/c2ccccc2)cc1	0.2	.	.	.	-1	-1	-4	-13	-0.8	-4
CC(=O)c1cccc(NC(=O)C2CCN(S(=O)(=O)c3cccs3)CC2)c1	-1.8	.	.	.	-21	26	-5	-1	0.1	-4
CC1CN/C(=C\C(=O)c2ccc(Cl)cc2)C(=O)N1 (stereo unspecified)	2.2	.	.	.	.	-9	-3	18	0.5	-3
Cc1cccc(NC(=O)[C@@H](NC(=O)[C@@H]2Cc3ccccc3CN2)C(C)C)c1	-1.0	3	6	-0.7	-5	-6	-10	6	-2.0	2
Cc1ccc(CN2CCN(C/C=C/c3ccc(F)cc3)CC2CCO)o1 (stereo unspecified)	2.9	4	8	-9.1	.	11	-2	0	0.3	-11
CCOC(=O)c1ccc(S(=O)(=O)NCC(C)(C)N2CCOCC2)cc1	-2.2	14	7	1.3	.	-3	-6	33	-0.9	-3
Cc1ccc(C(=O)C[n+]2cccc(C(N)=O)c2)cc1	2.6	5	2	2.6	33	3	4	-2	0.3	-11
CNC(=O)CSc1cnc2ccccc2n1	2.7	4	4	0.6	-16	-2	-4	-13	-0.4	0
CCC(C)(C)NC(=O)CCCSc1nc2ccccc2[nH]1	-1.2	-2	-7	-1.8	1	-7	-13	-5	0.1	-8
COc1ccc(OC)c(NC(=O)CN2C(=O)CSc3ccc(S(=O)(=O)N4CCCC4)cc32)c1	3.0	-5	8	3.7	-12	-13	8	-3	-0.7	4
O=C(CC(c1ccccc1)c1ccccc1O)NCCN1CCOCC1 (stereo unspecified)	1.9	.	.	.	26	-12	-7	5	0.5	.
S=C(N/N=C/c1ccccc1)N1CCOCC1	-0.2	.	.	.	-9	32	7	-7	-0.7	.
CO/N=C/c1ccc(N2CCN(C(=O)c3ccc(C)cc3)CC2)c([N+](=O)[O-])c1	-6.2	.	.	.	3	1	-6	109*	-0.1	3
NC(=O)c1ccsc1NC(=O)COC(=O)Cc1cccc2ccccc12	3.2	.	.	.	97*	-24	4	?	-1.6	-5
Cc1ccc(C)c(OCCC(=O)OCC(=O)NC(=O)NCc2ccccc2)c1	7.2	5	8	-0.1	-10	-14	-5	3	-0.5	-10
O=C(CN1CCN(c2ccccc2O)CC1)NC(c1ccccc1)c1ccccc1	1.7	.	.	.	11	-4	-3	-15	0.4	-6
Cc1ccnc(NS(=O)(=O)c2ccc(Cl)nc2)c1	-4.6	10	5	-5.9	-14	-2	-1	-7	-0.4	-4
COCC(C)N1CCC(n2nccc2NC(=O)CCOc2ccccc2)CC1 (stereo unspecified)	-0.6	3	13	-1.3	-4	0	-8	8	0.4	-4
Cc1ccc(Nc2c([N+](=O)[O-])c(=O)n(C)c3ccccc23)cc1C	0.3	-39	-62	-7.8	-3	43	-4	-13	0.2	1
CCOC(=O)c1nn(C23CC4CC(CC(C4)C2)C3)c2c1C(=O)N(c1ccc(C)cc1)C2=O	-3.4	.	.	.	-2	3	-1	3	-0.1	0
Cc1ccc(CNC(=O)c2cn(C3CCCC3)c(=O)c3c2c2ccccc2n3C)o1	6.9	.	.	.	14	8	.	1	-1.0	3
COc1cc(OC)c(Cl)cc1N	1.1	.	.	.	-4	33	0	2	0.3	2
CCOC(=O)c1c(C)n(C)c2ccc(OCC(O)CN3CCC(C)CC3)cc12 (stereo unspecified)	-1.6	-3	-2	-3.9	-22	-10	0	2	0.2	.
Cc1cccc(OCC(=O)NNC(=O)C2CCCCC2C(=O)O)c1 (stereo unspecified)	2.1	14	19	-5.3	1	-22	3	-16	-0.1	-4
O=C(C[C@@H]1C/C=C\C[C@H](NC(=O)OCC2c3ccccc3-c3ccccc32)C(=O)O[C@H](c2ccccc2)CNC1=O)NCCO	0.2	-2	-3	4.0	5	.	13	.	-3.6	8
CCOC(=O)C1=C(O)C(=O)N(c2ccccc2)C1c1cccc([N+](=O)[O-])c1 (stereo unspecified)	-0.2	2	-13	-4.3	.	4	2	-9	0.4	3
Cc1ccc(S(=O)(=O)N2CCN(c3cccc(C)c3)CC2)cc1	1.9	-9	-3	-3.8	19	5	-4	-8	0.6	-4
O=C(Nc1ccccc1)N1CCSCC1	-0.1	.	.	.	-11	-20	4	-5	-0.2	-1
CCOc1ccc(CCNC(=O)c2cc3sc(Cl)cc3n2C)cc1OCC	-0.6	.	.	.	-7	38	4	0	-0.4	-3
Cc1ccc(C)c(NS(=O)(=O)c2cc(Br)cnc2N)c1	3.4	.	.	.	-2	13	1	19	0.1	-1
Fc1cccc(NC(=S)N2CCc3ccccc32)c1	-0.9	0	-1	-1.6	-5	.	-1	1	2.0	-9
C[n+]1ccccc1/C=C/c1ccc(F)c(F)c1	1.2	5	11	-0.6	-8	5	8	-6	0.6	1
CC12CCC(=O)N1C(C(=O)OCC(=O)Nc1ccc(Cl)c(Cl)c1)CS2 (stereo unspecified)	-2.6	-11	-3	0.7	-43	4	11	1	-0.4	-5
Cc1nc(CSc2nsc(/C=C/N(C)C)c2C#N)cs1	.	16	1	0.7	.	-13	-8	7	.	.

Not all compounds are listed; count on the stated rates, not on these rows.
